KCNQ2 inh: KCNQ2 potassium channel inhibitors, primary screen, cell-based, CHO-K1, FluxOR thallium flux, B-score (AID 2156) | O88943 | 20 min; active compounds read low; only compounds with negative scores are shown here; some inactives read as strong as hits | B-score at 10 µM | 310,000 tested, 1.1% active;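 active = fluorescence ratio B-score at most minus 3 library SDs, with starting brightness B-score within 2 library SDs, cut at about -5.5 in these data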
Target sequence (O88943 whole entry, looked up): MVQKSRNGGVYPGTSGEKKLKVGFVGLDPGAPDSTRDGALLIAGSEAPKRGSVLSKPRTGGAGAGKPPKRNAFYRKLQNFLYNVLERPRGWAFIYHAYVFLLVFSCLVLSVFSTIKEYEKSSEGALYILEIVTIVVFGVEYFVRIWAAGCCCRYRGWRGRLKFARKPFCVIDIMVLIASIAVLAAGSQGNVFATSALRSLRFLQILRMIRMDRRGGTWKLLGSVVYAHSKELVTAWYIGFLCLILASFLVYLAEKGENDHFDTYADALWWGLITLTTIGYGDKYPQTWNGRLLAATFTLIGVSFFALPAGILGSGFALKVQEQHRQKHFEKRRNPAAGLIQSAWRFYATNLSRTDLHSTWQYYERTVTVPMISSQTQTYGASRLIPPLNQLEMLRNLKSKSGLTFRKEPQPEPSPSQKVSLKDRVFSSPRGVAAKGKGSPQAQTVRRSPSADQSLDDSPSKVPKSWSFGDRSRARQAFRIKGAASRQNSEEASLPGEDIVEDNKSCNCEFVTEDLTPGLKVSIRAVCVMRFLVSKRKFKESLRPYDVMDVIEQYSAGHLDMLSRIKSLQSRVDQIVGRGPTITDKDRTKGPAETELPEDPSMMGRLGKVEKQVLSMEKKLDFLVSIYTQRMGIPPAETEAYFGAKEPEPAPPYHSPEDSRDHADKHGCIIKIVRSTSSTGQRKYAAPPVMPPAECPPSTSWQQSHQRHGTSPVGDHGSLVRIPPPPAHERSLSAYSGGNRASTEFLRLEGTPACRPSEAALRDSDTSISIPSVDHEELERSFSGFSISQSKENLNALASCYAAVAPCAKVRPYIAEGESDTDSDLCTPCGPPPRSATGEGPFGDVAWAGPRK
KCNQ2 inh baseline: also measured in KCNQ2 inh; calls as there; B-score; measured here: initial fluorescence intensity artifact check;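 brightness before thallium and not channel activity; 0 = typical well and far values either way flag optical interference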
* marks the source's active call; other numbers are inactive results; i = inactive. Not all compounds are listed; rates above refer to the full screens.

KCNQ2 inh | KCNQ2 inh baseline | SMILES
i | 0.44 | CCOc1ccc2nc(C(C)O)[nH]c2c1 (stereo not given)
i | 0.1 | Cc1cc(C)n(CCN(C)C(=O)c2cc(COc3c(F)cccc3F)on2)n1
i | -0.44 | Cc1cccc(N2C(=O)SC(N(CC(=O)O)c3cccc(C)c3)C2=O)c1 (stereo not given)
i | 1.8 | CCCCCN(C(=O)CCC(=O)OCc1ccccc1Cl)c1c(N)n(CCCC)c(=O)[nH]c1=O
i | -0.67 | COc1ccc(OCc2ccc(C(=O)N3CCOCC3)cc2)cc1
i | 0.84 | Cc1c(C)c2c(OCC(=O)N3CCC(O)CC3)cc3c(c2oc1=O)CCC(C)(C)O3
i | 1 | Nc1nc2ccccc2n1CCOc1ccc(Br)cc1
i | -1.3 | CSc1nnc(CNS(=O)(=O)c2ccc(Br)cc2)n1C
i | 0.77 | O=C(NCC(c1ccco1)N1CCc2ccccc21)c1ccccc1 (stereo not given)
i | 0.79 | CN(C(=O)c1cc2nc(-c3ccco3)cc(C(F)(F)F)n2n1)C1CCCCC1
i | 2.9 | CC(Nc1n[nH]c(=O)[nH]c1=O)C(=O)N/N=C/c1ccccc1 (stereo not given)
i | -0.86 | CCOC(=O)C1=C(C)N(c2ccc(OCC)cc2)C(=O)/C1=C\c1ccco1
i | 0.87 | CCCCC(O)(c1ccc(CC)cc1)C(CN1CCOCC1)c1ccccc1 (stereo not given)
i | -0.12 | O=C(NCc1ccc(Cl)cc1)N1CCN(Cc2ccccc2)CC1
i | 0.74 | CC(=O)Nc1ccc(S(=O)(=O)NNC(=O)c2cccc(Cl)c2)cc1
i | -1.2 | COC(=O)CCC(NC(=O)c1cc(-c2ccc3c(c2)OCCO3)oc1C)C(=O)OC (stereo not given)
i | 0.96 | Cn1c2ccccc2n2c(=O)c(=O)n(CC(=O)c3ccc(Cl)cc3)nc12
i | 1 | S=C(NC1CCCCC1)N1CCOCC1
i | -0.36 | COCC(=O)N(Cc1cc2ccc(C)cc2[nH]c1=O)c1cccc(C)c1
i | 0.56 | O=C(c1ccc(Br)o1)N1CCN(CCc2ccncc2)CC1
i | 0.02 | CC1=CCC(COC(=O)Nc2ccccc2)CC1 (stereo not given)
i | -0.96 | C/C(=N/NC(=O)c1ccc(Br)o1)c1ccncc1
i | -0.93 | CC(C)OCCCN1CN(S(=O)(=O)c2ccccc2)c2nc3ccccc3nc21
i | -0.02 | CC(NC(=O)Cc1ccccc1[N+](=O)[O-])c1ccccc1 (stereo not given)
i | -0.03 | CN1/C(=C\C(=O)c2cccnc2)C(C)(C)c2ccccc21
i | -3.2 | O=C1CCCN1c1ccc(S(=O)(=O)Oc2ccc(Cl)cc2)cc1[N+](=O)[O-]
i | 2.8 | CCOC(=O)c1cncc(C#CCOC(=O)Nc2ccc(OC(F)(F)F)cc2)c1
i | 0.04 | CN(C)CCNc1oc(COc2ccc(-c3ccccc3)cc2)nc1C#N
i | 3.1 | Cc1c(Cl)cccc1NC(=S)N1CCCN(Cc2ccc(F)cc2)C1
i | 0.08 | CCn1c(Cn2nnc(-c3ccccc3)n2)nnc1SCC(=O)Nc1ccc(C(C)=O)cc1

A stretch from further up, as a working copy:
KCNQ2 inh | KCNQ2 inh baseline | SMILES
i | -0.12 | O=C(NCc1ccc(Cl)cc1)N1CCN(Cc2ccccc2)CC1
i | 0.74 | CC(=O)Nc1ccc(S(=O)(=O)NNC(=O)c2cccc(Cl)c2)cc1
i | -1.2 | COC(=O)CCC(NC(=O)c1cc(-c2ccc3c(c2)OCCO3)oc1C)C(=O)OC (stereo not given)
i | 0.96 | Cn1c2ccccc2n2c(=O)c(=O)n(CC(=O)c3ccc(Cl)cc3)nc12
i | 1 | S=C(NC1CCCCC1)N1CCOCC1
i | -0.36 | COCC(=O)N(Cc1cc2ccc(C)cc2[nH]c1=O)c1cccc(C)c1
i | 0.56 | O=C(c1ccc(Br)o1)N1CCN(CCc2ccncc2)CC1
i | 0.02 | CC1=CCC(COC(=O)Nc2ccccc2)CC1 (stereo not given)
i | -0.96 | C/C(=N/NC(=O)c1ccc(Br)o1)c1ccncc1
i | -0.93 | CC(C)OCCCN1CN(S(=O)(=O)c2ccccc2)c2nc3ccccc3nc21
i | -0.02 | CC(NC(=O)Cc1ccccc1[N+](=O)[O-])c1ccccc1 (stereo not given)
i | -0.03 | CN1/C(=C\C(=O)c2cccnc2)C(C)(C)c2ccccc21
i | -3.2 | O=C1CCCN1c1ccc(S(=O)(=O)Oc2ccc(Cl)cc2)cc1[N+](=O)[O-]
i | 2.8 | CCOC(=O)c1cncc(C#CCOC(=O)Nc2ccc(OC(F)(F)F)cc2)c1

Carrying on:
KCNQ2 inh | KCNQ2 inh baseline | SMILES
i | 2.2 | CCc1nnc(NC(=O)CCC(=O)NCc2ccc(C)cc2)s1
i | 0.28 | O=C(NCCC(=O)N1CCCCC1)c1ccccc1Cl
i | -0.14 | Oc1ccccc1/C=N/NC(=S)NC1CC2CC1C1C=CCC21 (stereo not given)
i | 0.97 | CCN1C(=O)C(CC(=O)NCCc2ccccc2)N(NC(=O)c2cccnc2)C1=S (stereo not given)
i | 0.05 | Cc1cc(C(=O)Nc2ccccc2C(=O)O)oc1C
i | 0.83 | COCCN(C(=O)Nc1ccccc1OC)c1nc2ccccc2s1
i | -1.8 | O=C(c1cnn(-c2ccccc2)c1-n1cccc1)N1CCN(C2CCCCC2)CC1
i | 1.6 | CC(NC(=O)CN1c2cccc3cccc(c23)S1(=O)=O)c1ccc(S(N)(=O)=O)cc1 (stereo not given)
i | 2.3 | O=C(NCCc1ccc(Cl)cc1)c1ccc2[nH]c(=O)c(=O)[nH]c2c1
i | -0.26 | COc1ccc(-n2c(Cc3cccn3C)nnc2SCC(=O)Nc2ccccc2OC)cc1
-6* | -3.8* | Cc1ccc(C)c2[nH]c(=O)c(C(c3nnnn3CCc3ccccc3)N3CCOCC3)cc12 (stereo not given)
i | 1.7 | CCOC(=O)CN(Cc1sccc1C)C(=O)Nc1ccc(OC)cc1OC
i | -0.01 | COc1cc(NC(=O)CN2CC(c3ccccc3)CC2=O)cc(OC)c1 (stereo not given)
i | -1.5 | Cc1cccc(OCC(=O)Nc2ccc(S(=O)(=O)Nc3onc(C)c3C)cc2)c1C
i | 2.3 | CCn1c2ccccc2c2cc(NC(=O)COC(=O)c3cc(Cl)c(N)cc3OC)ccc21
i | 0.31 | CCOc1ccc(NS(=O)(=O)c2ccc(C(=O)NCC(c3ccccc3OC)N3CCCC3)cc2)cc1 (stereo not given)
i | -0.23 | CSc1ccc(Cl)c(C(=O)NCCOc2ccccc2)c1
i | -0.03 | FC(F)(F)c1nnc2ccc(N3CCOCC3)nn12
i | -1.2 | CCOC(=O)c1ccc(NC(=O)COC(=O)Cc2csc(-c3ccccc3)n2)cc1
i | 2.1 | N#CC1=C(N)OC2=C(C(=O)CCC2)C1c1cc2c(cc1Cl)OCO2 (stereo not given)
i | -1.1 | CCOc1ccc(OCCC(=O)N(CC)CC(=O)NCc2ccc(Cl)cc2)cc1
i | 1.8 | NC(=O)C1(N2CCCCC2)CCN(S(=O)(=O)c2ccc(Cl)s2)CC1
i | 0.57 | CC(Oc1ccc(Cl)cc1)C(=O)Nc1ncccn1 (stereo not given)
i | -0.26 | CC(=O)Nc1ccc(S(=O)(=O)N2CCC(NC(C)=O)(c3cccc(F)c3)CC2)cc1
i | 0.78 | COc1cc(Cl)c(C)cc1NC(=O)Cn1c(NCCO)nc2ccccc21
i | 1 | COc1ccc(NC(=O)c2ccc3c(=O)n(-c4ccc(OC)cc4OC)c(=S)[nH]c3c2)c(OC)c1
i | -0.77 | FC(F)(F)c1ccc(Oc2ccc3c(C(F)(F)F)cc(C(F)(F)F)nc3n2)cc1
i | -1.1 | COc1cc(/C=N/NC(=O)c2ccncc2)ccc1OC(=O)c1ccccc1Cl
i | 0.03 | Cc1cc(-n2cccn2)ccc1CN1CCN(C2CCCC2)C(CCO)C1 (stereo not given)
i | 0.08 | Cc1ccc(Cn2nnnc2CN2CCC(O)(c3ccc(F)cc3)CC2)cc1
i | 1.1 | O=[N+]([O-])c1ccc(N2CCN(S(=O)(=O)c3ccccc3)CC2)cc1NCc1ccco1
i | -0.05 | COc1ccc(C)cc1NS(=O)(=O)c1ccc2c(c1)N(C)CCO2
i | 0.34 | CCOc1ccc(CSCCNC(=S)Nc2ccc(OC)cc2)cc1
i | -2.4 | CC1(C)CC2CC(C)(CN2C(=O)c2cc(-c3ccc(O)cc3)on2)C1 (stereo not given)
i | -0.15 | CCN(CC)S(=O)(=O)c1cc(C(=O)O)ccc1Cl
i | 0.06 | Cc1cccc(C2c3[nH]c4ccccc4c3CCN2C(=O)c2cc(-c3cccn3C)n[nH]2)n1 (stereo not given)
i | 1.1 | CCCOc1ccc(N2C(=O)CC(N(CCc3ccc(OC)cc3)C(=O)/C=C/C(=O)O)C2=O)cc1 (stereo not given)
i | 0.28 | CCn1c(CSc2nc3ccccc3s2)nnc1SCC(=O)c1ccc(Cl)cc1
i | 1.5 | O=C(/C=C/c1ccccc1Cl)NCCN1CCOCC1
i | 0.14 | COc1ccc(C(CNC(=O)c2oc3cc(Br)ccc3c2C)N2CCCCC2)cc1 (stereo not given)
i | 0.9 | CC1=[N+]([O-])C(C)(C)C(C)N(O)C1=O (stereo not given)
i | -1.1 | COc1cc(-c2csc(C)n2)ccc1O
i | -1.5 | O=[N+]([O-])c1cccc(/C=N/N2CCN(c3ccccn3)CC2)c1
i | 1.5 | Cc1ccccc1NC(=O)CSC1=C(C#N)C(c2ccsc2)CC(=O)N1 (stereo not given)
i | 1.4 | O=C(c1ccccc1)N1CCc2ccccc21
i | -1.7 | COc1cccc(/C=C(/C(=O)OCC(N)=O)c2ccccc2)c1
i | 1.7 | CN1CCN(c2nc3c(c(=O)n(C)c(=O)n3C)n2CC(=O)C23CC4CC(CC(C4)C2)C3)CC1
i | -0.03 | Nn1c(COc2ccccc2)nnc1SCc1cc(=O)[nH]c2ccccc12
i | 0.92 | O=C(NCCCn1ccnc1)/C(=C\c1cccnc1)NC(=O)c1cccc(Br)c1
i | -0.03 | CCOc1ccc(C(=O)NC2CC3CCCC(C2)N3CC(C)C)cc1 (stereo not given)
i | -0.58 | CCOc1ccccc1Nc1nnc(SCc2ccc(C(=O)OC)o2)s1
i | 0.09 | Cc1ccc(S(=O)(=O)N(CC(=O)Nc2ccc(C)c(Cl)c2)C(=O)N2CCN(C)CC2)cc1
i | -1.8 | CCN1C(=NCCN2CCOCC2)N[C@@H](c2ccccc2)C(C(=O)OC)=C1C
i | 2.3 | C[C@H](NC(=O)c1nc[nH]c1C(=O)NCCCCCN)C(=O)OC(C)(C)C
i | -1.2 | O=C(CSc1nc(NS(=O)(=O)c2ccccc2)cc(=O)[nH]1)Nc1ccccc1Cl
i | -2.4 | C=C(C)COc1ccc(-c2ncncc2-c2ccccc2)c(O)c1
i | -2.2 | O=C(CSCC(=O)N1CCCc2ccccc21)Nc1nc(-c2ccccc2)cs1
i | 0.35 | CCC(C)(C)n1nnnc1C(c1ccc(O)cc1)N1CCc2ccccc2C1 (stereo not given)
i | 0.18 | O=C(CCC(=O)c1cccs1)Nc1ccc(N2CCCCC2)cc1
i | 2.1 | Cc1c(C#N)c(N)c(C(=O)c2ccccc2)n1Cc1ccccc1

Other entries follow:
KCNQ2 inh | KCNQ2 inh baseline | SMILES
i | 2.6 | N#CCC(=O)Nc1ccc(C(=O)OCC(=O)N2CCCC2=O)cc1
i | 1 | Cc1cc(=O)[nH]c(SCC(=O)N2CCCCC2)n1
i | -0.16 | O=C(c1cccc(C(F)(F)F)c1)c1c[nH]c(C(=O)NCCCN2CCOCC2)c1
i | 0.54 | CC(OC(=O)c1ccc(NC(=O)CC#N)cc1)C(=O)Nc1ccc(Oc2ccccc2)cc1 (stereo not given)
i | 1.1 | CCOC(=O)N1CCN(C(=S)NC(=O)c2cc(Br)ccc2Cl)CC1
-6.1* | -0.92* | N#Cc1c(/N=C/c2cccs2)sc2c1CCCCC2
i | 2.3 | NC(=NC(=O)c1ccccc1)N1CCN(C(c2ccccc2)c2ccccc2)CC1
i | -0.32 | Cn1nc(C(=O)OCC(=O)N2CCc3ccccc32)c2ccccc2c1=O
i | -0.56 | CN(C)S(=O)(=O)c1cccc(COC(=O)CN2CCCCCC2=O)c1
i | 0.09 | CCc1ccc(OCC(=O)NNC(=O)CSc2ncnc3sc(C)c(C)c23)cc1
i | -0.74 | CSc1nnnn1-c1c(C)cc(C)cc1C
i | 0.68 | O=C1NN(c2cccc(Br)c2)C(=O)/C1=C\c1ccc(O)cc1
i | -0.01 | Cn1c(=O)cc(N)n(Cc2ccccc2)c1=O
i | 3 | COc1ccc(N2CCN(C(=O)CSc3nc4[nH]ncc4c(=O)n3-c3cccc4ccccc34)CC2)cc1
i | 2.9 | CCc1cc(-c2onc(C)c2-c2cscn2)c(O)cc1OC
i | 0.33 | CCc1ccc2oc(C(=O)NCCc3ccc(S(N)(=O)=O)cc3)cc(=O)c2c1
i | -0.82 | Cn1nc(OCC(=O)O)cc1C(F)(F)F
i | 1.7 | CN1CCN(CC(=O)Nc2ccc([N+](=O)[O-])cc2Br)CC1
i | 1.6 | CCc1nc(NCc2ccc3c(c2)OCO3)c2oc3ccccc3c2n1
i | 0.21 | Cc1ccc(NC(=O)C2CCN(S(=O)(=O)c3c(C)noc3/C=C/c3ccco3)CC2)nc1
i | -0.86 | CCOc1ccccc1/C=N/OCC(=O)NCc1ccc(F)cc1
i | 0.5 | CC(C)CC(COCc1ccc(Cl)cc1)N1CCN(C(=O)c2ccc(C(F)(F)F)cc2)CCC1=O (stereo not given)
i | -0.3 | COC(=O)c1ccc(C)c(NS(=O)(=O)c2ccc3c(c2)OCCO3)c1
i | 1.1 | C[C@@H](C(=O)NCc1c(F)cccc1Cl)N1C(=O)N2CCc3c([nH]c4ccccc34)[C@@]2(C)C1=O
i | 0.53 | Cc1cc(NS(=O)(=O)c2ccc(NC(=O)c3cnc4sccn4c3=O)cc2)nc(C)n1
i | -0.88 | CC/C(=N/NC(=O)CNc1ccc(Cl)cc1C)c1ccccc1
i | -0.71 | CC(C(=O)Nc1ccc(Cl)cc1)N(C)Cc1cccs1 (stereo not given)

Compound activity (PubChem)
